Compound activity: PubChem, several laboratories
AF4-AF9 inh: inhibitors of human MLL-AF4/AF9 interaction. AlphaScreen, biotin-AF4 peptide binding to FLAG-AF9. inhibition, % at 10 µM. 0.47% of 350,000 active;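 active = every replicate reaching a set inhibition limit, whatever the replicate mean, cut at about 25% in these data; inconclusive = mean inhibition reaches that limit but some replicates miss it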;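 also: 0% = plate neutral control median and 100% = total signal loss; the record names both 10 and 1 µM as test concentration; the first replicate is given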
Target sequence (P42568 whole entry, looked up): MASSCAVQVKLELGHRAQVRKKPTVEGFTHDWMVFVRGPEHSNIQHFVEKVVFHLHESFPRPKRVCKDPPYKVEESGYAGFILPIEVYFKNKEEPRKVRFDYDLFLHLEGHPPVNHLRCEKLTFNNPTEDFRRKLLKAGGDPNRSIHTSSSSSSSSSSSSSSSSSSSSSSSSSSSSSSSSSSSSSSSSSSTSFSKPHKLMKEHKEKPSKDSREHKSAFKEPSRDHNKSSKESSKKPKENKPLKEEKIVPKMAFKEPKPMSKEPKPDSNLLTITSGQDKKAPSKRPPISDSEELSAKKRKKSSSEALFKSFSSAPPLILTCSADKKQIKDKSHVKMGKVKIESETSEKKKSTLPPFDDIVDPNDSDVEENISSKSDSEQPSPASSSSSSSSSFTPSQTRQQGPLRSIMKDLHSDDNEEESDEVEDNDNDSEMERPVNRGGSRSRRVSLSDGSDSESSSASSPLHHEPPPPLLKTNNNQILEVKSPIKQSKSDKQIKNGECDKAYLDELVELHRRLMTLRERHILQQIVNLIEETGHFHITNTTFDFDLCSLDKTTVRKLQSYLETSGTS
Vif A3G: inhibitors of Vif binding to APOBEC3G peptide, primary screen, biochemical, TR-FRET, GST-Vif 1-94, biotin-A3G peptide, dose response retest (AID 1117319). TR-FRET GST-Vif / biotin-A3G peptide binding; higher % means a stronger effect; test concentration not given here; strong numbers were not always called active. inhibition, %, or IC50 in µM where a hit was titrated. 0.57% of 260,000 active;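 active = above the screen mean plus three standard deviations and confirmed in dose response; inconclusive = results disagree or hit not tested in dose response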;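 also: Vif residues 1-94 fused to GST binding biotinylated APOBEC3G peptide 110-148; 0% = full assay without inhibitor and 100% = GST in place of GST-Vif; retest series ran down from 100 µM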
ALR H2O2 inh: blocks human ALR sulfhydryl oxidase activity. P55789. purified ALR, DTT oxidation, H2O2 HRP-luminol luminescence. inhibition, % (no concentration beside the values). 3.8% of 290,000 active. AID 485317;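 active = mean and each replicate at 75% or more; inconclusive = only one of the two met; inactive = neither met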;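 also: stock transfer was 7.5 nL into about 7.5 µL; 0% = neutral wells and 100% = wells with inactivated enzyme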
E coli growth: blocks Escherichia coli growth | OD600 absorbance (test concentration not listed) | 0.21% of 330,000 active | OD600, 23 h; stronger effect = lower value;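 active = OD600 absorbance below the run mean of sample wells minus 3.6 SD, in any replicate, cut at about 0.56 in these data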;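 also: stock transfer was 300 nL into about 60 µL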
HNF4A DNA FP: change in binding of human HNF4 alpha to DNA; HNF4a-FITC DNA binding, fluorescence polarization, 1 h; activity change, % at 10 µM; 0.3% of 360,000 active; AID 1224865; in the data active = activity change above about 30%, passing the limit was not always enough;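 also: controls were the assay level and a saturating level of protein; the project sought stronger binding though the title names inhibitors; some compounds called inactive have numbers as strong as hits; positive values seem to mean higher polarization but the record does not say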
Target sequence (P41235 whole entry, looked up): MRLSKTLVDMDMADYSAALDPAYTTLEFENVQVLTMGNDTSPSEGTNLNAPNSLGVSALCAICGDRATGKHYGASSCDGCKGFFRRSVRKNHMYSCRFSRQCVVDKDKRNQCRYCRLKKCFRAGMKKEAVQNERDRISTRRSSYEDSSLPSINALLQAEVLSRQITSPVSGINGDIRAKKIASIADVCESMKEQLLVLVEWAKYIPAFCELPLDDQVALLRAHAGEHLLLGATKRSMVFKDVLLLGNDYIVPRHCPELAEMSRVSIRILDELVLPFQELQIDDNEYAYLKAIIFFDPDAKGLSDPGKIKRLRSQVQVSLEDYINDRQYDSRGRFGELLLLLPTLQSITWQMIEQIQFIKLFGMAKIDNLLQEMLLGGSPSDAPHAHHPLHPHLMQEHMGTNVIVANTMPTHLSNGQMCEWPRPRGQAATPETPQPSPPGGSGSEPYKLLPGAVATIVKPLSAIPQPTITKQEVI
rRNA inh HTS: inhibitors of bacterial rRNA selective over humanized ribosomes; E. coli WT GFP vs humanized-ribosome RFP mutants, fluorescence, 24 h; stronger effect = lower value; DMSO median 0, no signal -100; GFP signal change (wild-type ribosome), % (concentration not given with the values); 1.6% of 350,000 active;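 active = significant combined selectivity score with lowered wild-type GFP, culture density cut under 30%, mutant RFP and density less affected; inactive = any of these conditions unmet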; also: one replicate is shown; some compounds called inactive have numbers as strong as hits
FGF22 binding: FGF22 (human) thermal shift binding | Q9HCT0 | recombinant FGF22 thermal shift, SYPRO orange fluorescence; percent of sucrose octasulfate shift, DMSO zero | calls only at 9.99 µM | 1.5% of 340,000 active | AID 651658;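 active = melting point raised past a set limit in the mean and every replicate; inconclusive = no clear call; three in four hits are not shown here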
rRNA inh HTS OD600: second read-out of rRNA inh HTS, no call of its own (marks repeat the call); OD600 change, %; measured here: OD600 growth;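 optical density of the mix in the first replicate; 0 = DMSO median and -100 = no signal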
rRNA inh HTS RFP: also measured in rRNA inh HTS; calls as there; RFP signal change, %; measured here: RFP humanized mutant strains;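 first replicate; 0 = DMSO median and -100 = no signal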
* hit, by the source's call; i = inactive; ? = inconclusive; / = no result given.

no.	AF4-AF9 inh	Vif A3G	ALR H2O2 inh	E coli growth	HNF4A DNA FP	rRNA inh HTS	rRNA inh HTS OD600	molecule	rRNA inh HTS RFP	FGF22 binding
1	1.8	/	11	0.67	-2.4	5	8	CC(=O)N1CCN(c2ccc(NC(=O)c3cc4ccccc4o3)cc2)CC1	-0.8	i
2	1.7	/	50	/	2.6	-51	-76	COc1ccc(C(=O)NNC(=S)NC(=O)c2cccs2)cc1	-13	i
3	/	-8%	0	0.69	2.5	1	-2	CSCCC(NS(=O)(=O)c1ccc(Cl)cc1)C(=O)OCC(=O)N(C(C)C)C(C)C (centres undefined)	-2.6	/
4	4.0	0%	-18	0.68	0.3	5	4	CCCn1c2ccccc2c2cnn(CC(=O)NCCN(C)C)c(=O)c21	1.4	i
5	4.7	0%	-5	0.58	1.0	/	/	CN(C)C(CNC(=O)CSc1nc2sc3c(c2c(=O)n1C)CCCC3)c1ccccc1 (centres undefined)	/	i
6	-1.8	-1%	-2	0.69	-1.3	3	1	CCC(C)NC(=O)C(Cc1ccccc1)NS(=O)(=O)c1ccc2c(c1)CCC(=O)N2 (centres undefined)	-0.8	i
7	-2.5	/	10	0.67	-4.4	8	6	CCCc1nn2c(=O)cc(CSCC(=O)Nc3ccccc3OC)nc2s1	-3.0	i
8	/	29%	22	0.69	10	/	/	CCN(CC)c1ccc(C=Nc2ccccc2)c(O)c1	/	/
9	/	-1%	-4	0.73	-3.6	/	/	Clc1ccc(OCc2nn3c(-c4ccccc4)nnc3s2)c(Cl)c1	/	/
10	4.7	22%	/	0.66	3.8	-10	-10	COCCN(C(=S)Nc1ccc(C)cc1C)C(C)c1cccs1 (centres undefined)	-7.2	i
11	/	5%	3	0.68	0.5	/	/	Cc1ccc(C(=O)NCc2ccco2)cc1[N+](=O)[O-]	/	/
12	-3.2	-4%	/	/	1.5	4	3	COc1ccc(S(=O)(=O)N2CCC(C(=O)NCCC(=O)NCCc3cccc(F)c3)CC2)cc1	0.8	i
13	-14	/	-3	0.65	0.4	-3	-16	CCCOc1ccccc1C(=O)N(Cc1cccc(Br)c1)C1CCS(=O)(=O)C1 (centres undefined)	9.1	i
14	-1.3	/	/	/	/	4	8	C/C=C/c1ccc([C@@H]2[C@@H](CO)N(C(=O)COC)[C@H]2CNC(=O)CC)cc1	-3.2	i
15	-1.2	-4%	/	0.69	3.6	-2	3	Cc1ccc(CN2CC(C(=O)N3CCN(S(=O)(=O)c4ccccc4)CC3)CC2=O)cc1 (centres undefined)	-0.5	i
16	-8.6	-26%	-4	0.66	0.5	17	12	Cc1ccc2c(ccc(=S)n2C)c1	0.2	i
17	0.1	2%	-5	0.66	-0.7	13	12	CNC(=O)c1c(Br)cnn1-c1ccc(C)cc1	0.8	i
18	/	-2%	15	0.68	-1.5	/	/	CCOC(=O)C1CCN(C(=O)N2CCOCC2)CC1	/	/
19	3.8	/	/	/	/	9	-18	C[C@H](CO)N1C[C@H](C)[C@H](CN(C)Cc2ccc(Oc3ccccc3)cc2)Oc2ccc(NS(=O)(=O)c3ccccc3)cc2C1=O	26	i
20	1.5	-11%	4	0.66	3.1	-37	-47	CC(=O)N1CCC(N2CCN(Cc3ccc(C)cc3)C(CCO)C2)CC1 (centres undefined)	-3.3	/
21	4.3	/	/	/	/	-4	9	C/C=C/c1ccc([C@@H]2[C@@H](CO)N3CCCCN(C(=O)Nc4ccccc4F)C[C@H]23)cc1	-0.1	i
22	/	0%	5	0.73	0.4	/	/	CCOC(=O)c1c(NC(=O)CSc2nnc(C)s2)sc2c1CCCCC2	/	/
23	4.4	/	/	/	/	-1	0	C[C@@H]1CN([C@H](C)CO)C(=O)c2ccccc2-c2ccccc2CO[C@H]1CN(C)C(=O)Nc1cccc(C(F)(F)F)c1	-1.1	i
24	/	10%	1	/	-4.3	/	/	O=[N+]([O-])c1ccc(C2CCCC/C2=N/OCc2ccc(F)cc2)c([N+](=O)[O-])c1 (centres undefined)	/	/
25	2.6	/	/	/	/	3	-5	COc1ccc(CC(=O)NCC2CCN(C(=O)C(=O)c3cc4ccccc4o3)CC2)cc1	7.6	i
26	-0.6	/	/	/	-2.5	-15	-23	COC(=O)[C@]12CCCCC=C1N(CCC1=CCCCC1)C(=O)[C@H](CC(=O)NCc1cccs1)C2	1.9	i
27	-2.1	/	-2	0.65	0.3	10	17	CCN(CC)S(=O)(=O)c1cccc(NC(=O)COC(=O)c2n[nH]c(=O)c3ccccc23)c1	1.7	i
28	-13	/	/	/	/	-1	-3	COc1ccc(NC(=O)N[C@H]2CC[C@@H](CCn3cc(-c4ccc(F)cc4)nn3)O[C@@H]2CO)cc1	1.0	i
29	5.7	/	/	0.68	-3.1	-9	-17	CC(=O)N1N=C(c2ccc(NS(=O)(=O)c3ccccc3)cc2)CC1c1ccco1 (centres undefined)	2.9	i
30	-1.0	-2%	-1	0.7	0.7	17	14	Cc1cccc(C)c1NC(=O)c1ccccc1C(=O)O	2.8	i
31	-0.9	/	-4	0.66	-5.1	-11	-4	Cc1ccccc1CCNC(=O)CCn1nc(C)c2c(C)n(-c3ccccc3)nc2c1=O	0.1	i
32	/	-14%	/	0.69	2.4	/	/	Cc1nc(SCC(=O)NC(=O)NCCC(C)C)c2c(-c3cccs3)csc2n1	/	/
33	0.5	8%	-21	0.7	3.2	12	12	COc1ccc(NC(=O)c2ccc(-n3cncn3)c([N+](=O)[O-])c2)cc1	0.7	i
34	0.3	/	-1	0.68	-1.3	-25	-23	CCOc1ccccc1NC(=O)C(CC)Sc1nc2ccsc2c(=O)n1CCC(=O)O (centres undefined)	-21	i
35	0.6	4%	-2	0.72	-2.4	-9	-33	Cc1onc(-c2ccccc2)c1-c1nnc(CN2CCN(S(=O)(=O)c3ccccc3F)CC2)o1	-0.2	i
36	-4.0	1%	/	0.76	-2.1	5	10	Cn1cc(S(=O)(=O)Nc2cccc(F)c2)c(=O)n(C)c1=O	-2.0	i
37	0.4	/	/	/	/	1	-1	CC=Cc1ccc2n(c1=O)C[C@@H]1[C@@H](CO)[C@H](C(=O)NC3CCC3)[C@H]2N1Cc1ccccc1 (mixture of isomers)	-2.8	i
38	/	9%	-5	0.73	3.3	/	/	O=C(NCC1CCCO1)c1cccc(-n2cnnn2)c1 (centres undefined)	/	/
39	-4.5	/	/	/	/	-4	-4	Cc1ccc(S(=O)(=O)Nc2cccc3c2O[C@@H](CN(C)S(=O)(=O)c2cccs2)[C@@H](C)CN([C@@H](C)CO)C3=O)cc1	3.4	i
40	0.5	-12%	-7	0.68	-2.2	16	6	CCN(CC(=O)Nc1ccccc1OC)C(=O)C1CCCC1	0.5	i
41	/	1%	-6	0.77	/	/	/	COc1ccc(-n2c(SCC(=O)Nc3ncc(Cl)cc3Cl)nc3ccccc32)cc1	/	/
42	1.8	/	/	/	/	0	-4	CO[C@H]1CN(C)C(=O)c2cc(NC(=O)c3cc(C)on3)ccc2OC[C@H](C)N(C(C)=O)C[C@@H]1C	0.5	i
43	13	/	0	/	-3.8	-3	0	COc1ccc(-c2sc3ccc(N4CCOCC4)cc3c2C#CC2(O)CCCCC2)cc1	-1.1	i
44	0.4	/	/	/	/	1	1	O=C(N[C@H]1CC[C@H](CCNC(=O)c2cnccn2)O[C@H]1CO)c1ccc2c(c1)OCO2	-4.2	i
45	4.5	-4%	-18	/	3.3	-10	7	COc1ccc(NC(=S)Nc2ccccc2SC)c(OC)c1	-3.2	i
46	/	-4%	-3	0.77	-4.0	/	/	Cc1ccc(NC(=S)NCCN2CCOCC2)cc1C	/	/
47	-2.9	-5%	/	/	/	5	-10	CN1N=C(C(C)(C)C)CC1=O	-1.8	i
48	1.4	?	/	0.69	0.6	/	/	CC1CN(Cc2cn(C)nc2-c2ccc(Oc3ccccc3)cc2)CCN1C (centres undefined)	/	i
49	-2.4	/	1	0.72	-1.4	4	0	CC1Cc2cc(S(=O)(=O)N3CCN(c4ccccc4F)CC3)ccc2N1C(=O)C1CC1 (centres undefined)	0.7	i
50	5.6	-3%	-2	0.69	0.3	13	14	CN(C)CCCC(C)(O)C(Cc1ccccc1)c1ccccc1 (centres undefined)	4.8	i

Going on with the list:
no.	AF4-AF9 inh	Vif A3G	ALR H2O2 inh	E coli growth	HNF4A DNA FP	rRNA inh HTS	rRNA inh HTS OD600	molecule	rRNA inh HTS RFP	FGF22 binding
51	-10	5%	3	/	1.8	-25*	-5.6*	O=C(CSc1nc2ccc(Cl)cc2[nH]1)c1cccs1	0.2*	i
52	/	18%	3	0.76	-1.2	/	/	CCOc1cc(N2CCOCC2)c(OCC)cc1NC(=O)CN1C(=O)NC2(CCc3ccccc32)C1=O (centres undefined)	/	/
53	/	4%	/	0.7	1.6	/	/	O=C(NC1CCCCCCC1)c1ccccc1O	/	/
54	0.5	/	/	/	9.9	3	-3	O=[N+]([O-])c1ccc(F)c(CN2CCN(c3ncc(Cc4ccccc4)cn3)CC2)c1	0.8	i
55	0.4	-11%	-15	0.7	5.0	13	13	COc1ccc(CN2C(=O)c3ccccc3C2=O)cc1C(=O)OC(C)C(=O)NC(N)=O (centres undefined)	-0.9	i
56	0.2	/	/	/	/	3	5	CO[C@H]1CN(C)C(=O)c2ccc(NC(=O)C3CCCCC3)cc2OC[C@H](C)N(C)C[C@H]1C	-2.3	i
57	-4.3	4%	-6	0.72	0.3	0	4	CC(NC(=O)CCc1nnc(C2CCCCC2)o1)c1ccc(F)cc1 (centres undefined)	-1.3	i
58	0.1	-2%	/	0.7	4.9	16	9	Cc1c(-n2c(SCC(=O)C(C)(C)C)nc3ccccc3c2=O)c(=O)n(-c2ccccc2)n1C	-1.8	i
59	-36	-10%	-4	0.7	-1.9	-14	-23	Cc1cc(C)nc(SCc2cn3cc(Cl)ccc3n2)n1	-1.0	i

Entries shown so far that contain a furan ring, fused or not, in the order listed:
no.	AF4-AF9 inh	Vif A3G	ALR H2O2 inh	E coli growth	HNF4A DNA FP	rRNA inh HTS	rRNA inh HTS OD600	molecule	rRNA inh HTS RFP	FGF22 binding
1	1.8	/	11	0.67	-2.4	5	8	CC(=O)N1CCN(c2ccc(NC(=O)c3cc4ccccc4o3)cc2)CC1	-0.8	i
11	/	5%	3	0.68	0.5	/	/	Cc1ccc(C(=O)NCc2ccco2)cc1[N+](=O)[O-]	/	/
25	2.6	/	/	/	/	3	-5	COc1ccc(CC(=O)NCC2CCN(C(=O)C(=O)c3cc4ccccc4o3)CC2)cc1	7.6	i
29	5.7	/	/	0.68	-3.1	-9	-17	CC(=O)N1N=C(c2ccc(NS(=O)(=O)c3ccccc3)cc2)CC1c1ccco1 (centres undefined)	2.9	i

Some of the compounds tested; the hit share may differ from the screen's.
